Autofluor counter: flagged as autofluorescent in microsphere protease counterscreen. compound autofluorescence counterscreen, microsphere flow cytometry; hits give high values. fluorescence intensity (concentration not given with the values). 360,000 tested, 3.1% active. AID 624483;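 active = at least 3 SD above the mean of all compounds, about 16000 in these data; inconclusive = too few beads counted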;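 note: 100 nL of 1 mM stock went into each well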
PrP UTR inh: inhibition of PrP 5' UTR reporter expression; inhibition, % (test concentration not listed); AID 488862, 2010; 340,000 tested, 0.35% active; cell-based PrP 5' UTR mRNA reporter, plate reader;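 active = every replicate at 50% or more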;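 note: 0 = median of the neutral control wells; tested in H4 reporter cells; numbers are from one replicate; inactives centre near -14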
BJeLR lethal: MLPCN primary cell-based screen for lethality selective to Ras in HRASV12 cells; BJeLR (HRASV12) viability, CellTiter-Glo ATP luminescence, 48 h; reference of the scale not given here; inhibition, % (no concentration beside the values); 300,000 tested, 0.17% active; AID 1554, 2009;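 active = replicate mean above 50%; inconclusive = above 50% but judged a plate artefact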;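 note: 50 nL library stock added to about 25 µL; numbers are from one replicate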
RN4220 kill: growth inhibition of S. aureus RN4220, primary screen, OD600 | 16 h | inhibition, % (test concentration not listed) | 330,000 tested, 0.33% active | AID 1259311, 2017;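 active = z-score of -3 or lower and OD600 up to 0.18 on both plates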;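 note: plate controls were untreated cells for no effect and reference antibiotic for full effect; stock transfer was 100 nL into about 80 µL; one replicate is shown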
Mtb hypoxia inh: PubChem AID 1159583; M. tuberculosis hypoxia-regulated fluorescent reporter, fluorescence; 300,000 tested, 0.1% active; fluorescence inhibition, % (no concentration beside the values);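 active = 35 to 45% if threefold the growth effect, above 45% if 1.5-fold the growth effect; inactive = the rest, general growth blockers included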;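 note: wells of about 50 µL received 100 nL stock; 0% = vehicle wells and 100% = reference inhibitor wells; whole bacteria with a GFP reporter of the hypoxia response; strong numbers were not always called active; many hits fall short of the cut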
ugtP null kill: growth inhibition of ugtP-null S. aureus, primary screen, RN4220 ugtP deletion, OD600; 16 h; some inactives read as strong as hits; growth inhibition, % (no concentration beside the values); 330,000 tested, 0.54% active;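 active = z-score under -3 and OD600 up to 0.15 on both plates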;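 note: plate controls were untreated wells for no effect and antibiotic for full effect; wells of about 80 µL received 100 nL stock; the first replicate is given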
Mtb hypoxia inh growth: further read-out of Mtb hypoxia inh, marked with its call; growth inhibition, %; measured here: M. tuberculosis growth (absorbance);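 0% = vehicle and 100% = reference antibiotic; read after six days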
* marks the source's active call; other numbers are inactive results; ? = inconclusive; . = not tested or not shown.

SMILES	Autofluor counter	PrP UTR inh	BJeLR lethal	RN4220 kill	Mtb hypoxia inh	Mtb hypoxia inh growth	ugtP null kill
CCOC(=O)CC1c2ccc(C(F)(F)F)cc2S(=O)(=O)N1C1CCCC1 (stereo unspecified)	.	.	.	6.0	7.2	8.5	-8.7
O=C(Nc1nc(-c2ccc(Cl)s2)cs1)c1ccco1	4157	-65.7	-0.7	14.2	1.2	6.3	25.8
O=C(CNC(=O)c1ccc(S(=O)(=O)N2CCCC2)cc1)NN=Cc1ccco1	.	.	.	2.5	-4.0	0.9	7.4
CCC(=O)OCc1c(C(F)(F)F)nn(C)c1Sc1ccc(Cl)cc1	?	-20.8	-7.7	3.6	10.7	-0.5	10.3
Cc1ccsc1/C=C1\CCC(C2CCCC2)C1=O (stereo unspecified)	.	-144.2	-1.9	6.3	8.3	8.3	11.3
COCCCn1c(=O)c2ccccc2n2c(=S)[nH]nc12	3704	-9.0	17.4	5.8	1.6	5.6	6.6
CCOC(=O)c1c(CC(C)C)csc1N=CC1C(=O)CCCC1=O	.	.	.	13.4	2.1	-10.7	10.2
CCN(CCCNS(=O)(=O)c1ccc2c(c1)oc(=O)n2C)c1cccc(C)c1	5156	3.2	.	5.5	.	.	12.0
CCOc1cccc2sc(N(CCCN(C)C)C(=O)c3ccc(C(=O)c4ccccc4)cc3)nc12	5784	-6.9	7.7	-5.3	7.4	1.4	-10.1
Oc1ccc(C=NC2CCCCC2)cc1	3087	-1.3	-9.8	-3.6	-1.7	-3.0	-0.9
O=C(Nc1ccc(Oc2ccccc2)nc1)C1CCCCN1Cc1ccc(O)cc1 (stereo unspecified)	6100	-28.6	1.7	.	.	.	.
CCC(C)(C)NC(=O)C(c1ccc(C)cc1)N(CCN1CCOCC1)C(=O)CNC(=O)c1cccs1 (stereo unspecified)	4995	-12.2	-6.6	2.3	9.6	-6.4	12.1
COCCNC(=O)C(c1ccc(O)cc1)N(Cc1cccs1)C(=O)CCC(=O)Nc1ccccn1 (stereo unspecified)	4144	-13.3	2.1	0.0	-5.9	2.6	15.9
Cc1cc(=O)[nH]c(N/N=C/c2c(F)c(F)c(F)c(F)c2F)n1	3716	1.8	0.6	.	.	.	.
CN1CCN(S(=O)(=O)c2cccc(C(=O)N(C)C(c3ccccc3)c3ccccc3)c2)CC1	?	-6.1	1.7	-0.6	2.0	3.4	0.2
CN(C)CCc1nn[nH]n1	11138	-30.0	0.5	4.8	3.4	-2.6	6.4
O=C(O)CCn1[nH]c(=O)ccc1=O	4458	-2.6	-12.0	-0.5	.	.	2.3
N#Cc1ccncc1S(=O)c1ccc(Cl)cc1 (stereo unspecified)	3404	-6.2	0.7	2.0	-1.2	-3.5	2.7
CCCN1CCN(C(=O)CCc2nnc3ccc(N4CCN(c5cccc(OC)c5)CC4)nn23)CC1	5147	-27.8	-8.9	-1.3	.	.	6.7
CCN1CCN(c2nc3c(c(=O)n(C)c(=O)n3C)n2CCSc2nccc(C)n2)CC1	5232	-26.4	4.5	3.9	2.6	10.4	4.1
Cc1ccc(C(=O)NCc2ccco2)cc1S(=O)(=O)N1CCOCC1	3916	-14.4	-22.2	5.9	17.5	6.8	-3.0
CCOC(=O)C1(Cc2cccc(F)c2)CCN(C(=O)C2CCC2)CC1	3481	-17.7	-5.3	14.1	5.6	11.2	14.7
Cc1cc(Nc2ccccc2)nc(N2CCN(C(=O)c3ccc4c(c3)OCO4)CC2)n1	?	-24.5	0.7	0.4	-4.6	-5.9	-1.9
COCCn1c(Cc2ccccc2)nnc1SCc1nc2ccccc2c(=O)[nH]1	4258	-8.4	2.0	-1.8	.	.	0.6
COc1cc2c(cc1OC)/C(=C/C(=O)c1ccc([N+](=O)[O-])c(C)c1)NCC2	4360	-3.0	11.8	-1.6	10.8	-5.3	-6.7
O=C(CCC(=O)NNc1nc2ccccc2c2nc(-c3ccccc3)nn12)NCCCN1CCCC1=O	2422	-19.3	0.9	5.2	0.3	-2.4	9.1
O=C(NCCCC1CCCC1)C1CCC(=O)N(Cc2cccc(C(F)(F)F)c2)C1 (stereo unspecified)	6413	-8.9	-4.4	-4.4	4.4	3.9	-5.4
Cc1c(NS(=O)(=O)c2cccc(C(=O)NCc3cccc(Cl)c3)c2)c(=O)n(-c2ccccc2)n1C	3948	-10.9	.	3.1	3.8	2.5	6.4
Cc1cc2nc(CS(=O)(=O)c3ccccc3)cc(=O)n2[nH]1	4219	-17.4	-2.7	1.6	7.9	13.9	6.7
C=CCNC(=S)N/N=C/c1ccc(-c2ccc(Br)cc2)o1	2025	3.3	-15.9	.	.	.	.
CN(C)/C=N/S(=O)(=O)c1cccn1-c1ncc(C(F)(F)F)cc1Cl	2284	-18.9	1.7	.	.	.	.
N#Cc1ccc(N[C@@H]2CCN3C(=O)c4ccccc4[C@@H]3C[C@H]2O)cc1	2968	-2.4	.	1.3	1.8	0.1	2.2
COc1ccc(CCNC(=O)COC(=O)c2ccc(N3CCCC3=O)cc2)cc1	4172	-13.4	3.2	3.2	4.3	-0.2	0.0
Nc1nc(SCc2ccc3c(c2)OCO3)n[nH]1	3468	-8.9	4.0	-0.2	.	.	6.2
CC12CCC(C(=O)Nc3cc(F)ccc3F)(CC1=O)C2(C)C (stereo unspecified)	3207	-71.4	8.5	7.1	-2.1	7.6	4.4
CN1CCc2c(sc3nc(NN)n(-c4ccc(Cl)cc4)c(=O)c23)C1	2524	-13.4	-20.1	.	.	.	.

The closing 2 entries of the part above come first, to join the parts.
SMILES	Autofluor counter	PrP UTR inh	BJeLR lethal	RN4220 kill	Mtb hypoxia inh	Mtb hypoxia inh growth	ugtP null kill
CC12CCC(C(=O)Nc3cc(F)ccc3F)(CC1=O)C2(C)C (stereo unspecified)	3207	-71.4	8.5	7.1	-2.1	7.6	4.4
CN1CCc2c(sc3nc(NN)n(-c4ccc(Cl)cc4)c(=O)c23)C1	2524	-13.4	-20.1	.	.	.	.
COc1ccc(C(=O)NN2C(=O)C3C4C=CC(O4)C3C2=O)cc1 (stereo unspecified)	2531	-14.0	-6.4	5.7	1.0	10.9	5.4
O=C(NC1CC1)c1cccc(NC(=O)c2cn3ccccc3n2)c1	2922	-35.2	.	1.7	9.3	3.9	6.0
Cc1ccc(S(=O)(=O)N[C@@H](CCCCN)C(=O)CCl)cc1	6736	19.8	10.0	.	.	.	.
COc1ccc(-c2oc3ccc(-c4cc(OC)c(OC)c(OC)c4)cc3c2C#Cc2ccsc2)cc1	3997	-28.0	3.7	6.2	-3.0	11.9	4.4
Nc1cc2c(cc1C(=O)c1ccccc1F)OCCO2	2460	-4.2	-3.6	2.1	6.3	5.8	12.9
Cc1ccc2nc(/C(C#N)=C/c3cn[nH]c3-c3ccc(F)cc3)[nH]c2c1	3411	-23.1	2.6	6.5	0.6	3.8	32.3
Cc1ccc(OCc2cc(C(=O)N(C)CCc3nc4ccccc4[nH]3)no2)cc1C	3976	2.0	7.9	1.8	-1.8	-4.1	1.3
CC(NS(C)(=O)=O)C(c1cccs1)N1CCN(c2ccccc2)CC1 (stereo unspecified)	8009	-7.9	-0.2	6.9	0.4	-3.9	9.5
O=C(c1ccco1)N1CCN(C(c2ccc(Cl)cc2)c2nnnn2Cc2ccccc2)CC1 (stereo unspecified)	3127	-6.3	-10.1	2.4	.	.	-5.9
Cc1ccc(NC(=O)CSc2ncccc2C(=O)Oc2cccc([N+](=O)[O-])c2)cc1Cl	2045	-34.2	1.3	0.3	-3.6	-6.8	-7.0
O=C(O)CC(Cc1ccc(Br)cc1)C(=O)Nc1ccccc1 (stereo unspecified)	4085	-8.9	-4.3	2.7	-1.7	0.5	3.1
Cc1ccc(Nc2nc3nonc3[nH]c2=O)cc1	4421	-25.7	-12.1	41.5	-4.6	-6.2	19.2

Reformatted with values under each structure: part of the list above.
Values run as follows: Autofluor counter | PrP UTR inh | BJeLR lethal | RN4220 kill | Mtb hypoxia inh | Mtb hypoxia inh growth | ugtP null kill
- COc1ccc(C(=O)NN2C(=O)C3C4C=CC(O4)C3C2=O)cc1 (stereo unspecified)
→ 2531 | -14.0 | -6.4 | 5.7 | 1.0 | 10.9 | 5.4
- Cc1ccc(OCc2cc(C(=O)N(C)CCc3nc4ccccc4[nH]3)no2)cc1C
→ 3976 | 2.0 | 7.9 | 1.8 | -1.8 | -4.1 | 1.3

Other compounds:
SMILES	Autofluor counter	PrP UTR inh	BJeLR lethal	RN4220 kill	Mtb hypoxia inh	Mtb hypoxia inh growth	ugtP null kill
COCCCn1c(=O)c2ccccc2n(Cc2ccc(C)cc2)c1=O	3762	-10.4	-3.1	3.0	9.4	20.4	4.5
CC(C)c1ccccc1NS(=O)(=O)c1cccs1	3669	-21.9	5.6	5.6	6.8	-4.3	-2.4
COc1ccc(C2SCC(=O)Nc3c2c(=O)[nH]n3C2CCCCC2)cc1 (stereo unspecified)	?	-19.4	-0.1	3.3	6.8	-3.2	-2.3
CCCc1cc(NCCN(C)C)n2c(nc3ccccc32)c1C#N	4183	0.9	8.3	3.5	11.4	7.0	5.2
CC1=NCCN1S(=O)(=O)c1ccc(Br)c(C)c1	8086	-6.7	3.0	4.5	7.6	4.8	1.1
CCC(=O)Nc1nc2c(OC)ccc(OC)c2s1	5957	2.2	-13.5	-13.3	15.2	7.5	-7.5
Cc1cccc(C(=O)OC(C)CN2CCN(C)CC2)c1 (stereo unspecified)	4453	-30.4	-11.8	14.6	-3.4	6.8	5.4
O=S1(=O)CCOC[C@H](CC2CCCCC2)N1Cc1ccccc1	3636	6.3	-5.8	.	.	.	.
CCOc1ccc2ccccc2c1C1NC(=O)NC(C)=C1C(=O)OCCOC (stereo unspecified)	3887	-13.5	-15.3	-1.5	-5.0	-7.5	-0.6
CCSC(C)CC1CC(=NO)c2c(C)noc2C1 (stereo unspecified)	.	.	.	5.3	17.8	11.2	10.1
Cc1c(NC(=O)CSc2nc3ccccc3s2)c(=O)n(-c2ccccc2)n1C	2677	13.7	-8.8	-2.0	.	.	-4.7
COC(=O)c1cc(Br)ccc1NC(=O)CCNC(=O)c1ccco1	3694	-20.3	1.2	-1.8	-0.1	-1.3	6.0
Cc1ccc(S(=O)(=O)N(Cc2ccc(Cl)cc2)c2ccccc2C(=O)NCc2ccco2)cc1	2159	-83.2	2.8	1.8	1.9	5.2	1.2
COc1ccc(/C=N/n2c(-c3n[nH]c4c3CCC4)n[nH]c2=S)cc1	4202	-12.2	8.1	.	.	.	.
O=C(CSc1nnc(CNc2ccccc2)o1)c1ccc2c(c1)OCCO2	9278	-29.4	5.4	-4.8	8.1	2.4	-0.7
CCOC(=O)c1cc(-c2ccc(N)cc2)sc1N	18171*	-77.7	8.5	-5.2	1.7	9.7	-6.2
CCc1nnc2c(NCCc3ccccc3)nc3ccccc3n12	3776	6.2	-4.1	6.4	7.8	10.1	-2.9
CC1CCCCC1NC(=O)c1ccc2c(c1)[nH]c(=O)n2C1CCCC1 (stereo unspecified)	4713	-41.7	-2.9	-0.6	.	.	-1.7
CS(=O)(=O)N1CCN(c2ccc([N+](=O)[O-])cc2F)CC1	4910	-10.6	3.8	-0.1	-3.3	3.6	-2.1
CCCN(CCC)C(=O)C[n+]1cccc(C=NO)c1	.	.	.	8.3	-3.7	-2.6	6.7
CCCCC(CC(O)COCC(C)C)C(=O)NNC(=S)Nc1ccccc1 (stereo unspecified)	2512	-11.8	-1.2	2.0	17.4	19.4	7.3
Cc1nc2c(C)cccn2c(=O)c1NC(=O)c1cccs1	.	-9.1	-1.1	0.5	4.1	-1.0	1.8
c1ccc(-n2nnnc2Sc2n[nH]c(-c3ccncc3)n2)cc1	24881*	-6.9	-5.8	-2.1	-0.8	8.6	-17.8
O=C(Cc1ccc(F)cc1)N/N=C/c1ccncc1	9019	-7.0	3.7	.	.	.	.
O=C(c1ccc(-c2nnc(Nc3cccc(Cl)c3)c3ccccc23)cc1)N1C[C@H]2C[C@H](C1)c1cccc(=O)n1C2	4486	-3.4	-0.9	-1.4	.	.	8.4
Cc1ccc(NC(=O)CN2CCC(NC(=O)Cc3ccccc3)CC2)cc1C	9775	20.4	0.2	-1.0	4.9	3.2	2.2
Cc1[nH]c2ccccc2c1/C=N/Nc1nc(Nc2ccccc2)nc(N2CCOCC2)n1	3539	-13.2	-3.9	.	.	.	.
O=C(O)CC1c2ccc(C(F)(F)F)cc2S(=O)(=O)N1Cc1ccccc1 (stereo unspecified)	.	.	.	2.8	5.1	5.8	-8.0
C=CCN1C(=O)NC(=O)/C(=C/c2ccc(OC)c(CSc3ccccn3)c2)C1=O	3097	-28.2	-7.4	-2.1	.	.	-4.2
O=c1oc2ccccc2cc1-c1nc(-c2ccccc2)no1	3289	-50.8	2.8	13.5	4.1	12.1	-5.3
